miR-21 FLuc – raises the signal of a miR-21 reporter; Potency, µM (highest dose often 38.3 µM), for inactives: at the top dose reporter change, positive = more light; HeLa miR-21 FLuc reporter, luciferase, 48 h; 340,000 tested, under 10 active; AID 2288; active = well fitted rising curve with a large enough effect; inconclusive = small, poorly fitted or top-dose-only effect; inactive = no such curve, though single readings can be large or run the other way;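 note: % of control where 0% means no effect; miR-21 action dims this reporter so a rising signal means less miR-21 action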
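HeLa cells stably expressing CMV-driven firefly luciferase with a downstream miR-21 binding sequence, endogenously expressing miR-21, were treated with titrations (up to about 40uM final) for 48 hours at 37 degree Celsius. Luciferase luminescence was read after lysis.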
Rango release inh – prevents RanGTP from dissociating the Rango-importin beta complex | Biochemical FRET Rango-importin beta, RanGTP-induced dissociation | Potency, µM (highest dose often 46.1 µM), for the others: at the top dose activity change, negative = inhibition | 340,000 compounds, 0.071% hits | AID 540253; active means falling FRET ratio curve, often poorly fitted, with flat reads before Ran was added; inconclusive means other falling curves, or compound fluorescence or quenching; inactive means flat or rising ratio curve;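 note: potency is the fitted concentration of half-maximal effect; % of control where 0% means no effect; nearly all actives have a fitted effect of over 45% in size; -100% = wells without RanGTP and RCC1; the record marks most hits as doubtful in a second field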
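Two FRET readings bracket the reaction: one 5 min after compound meets Rango–importin beta, another 45 min after RanGTP-RCC1 (0.6 uM Ran, 0.2 uM RCC1, 2 mM GTP) is added. Only the second defines inhibition.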
Rango-impB inh – prevents formation of the Rango-importin beta complex. 340,000 compounds, 0.031% hits. Potency, µM (doses to about 92.2 µM), without a hit: top-dose inhibition of complex formation. Q14974. Rango CFP/YFP FRET sensor + importin beta, 45 min; active = rising FRET ratio curve, often small or poorly fitted; inconclusive = mostly compound fluorescence or quenching in the first reads; inactive = flat curves in all reads;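 note: potency is the fitted concentration of half-maximal effect; 0% = DMSO wells and 100% = buffer wells lacking importin beta; nearly all actives have a fitted effect of over 15% in size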
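FRET biosensor (snurportin 1 IBB flanked by EYFP and cerulean), 50 nM, with compound 5 min, then 0.125 microM importin beta in PBS, 1 mM DTT, 0.02% Tween-20, 0.1% BSA. CFP/YFP ratio read after 45 min at room temperature; pre-read flags interference.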
GLA inh pH 4.5 – blocks human alpha-galactosidase A at pH 4.5 | P06280 | purified enzyme, 4-MU-alpha-Gal fluorescence, pH 4.5 | activity change, negative = inhibition, % at 105 µM | 230,000 tested, under 10 active; inconclusive = small, poorly fitted or top-dose-only inhibition, or a rising curve; inactive = flat fitted curve, though single readings scatter; no compound was filed as active;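 note: 0% = full activity with enzyme and -100% = basal without enzyme; dose as in the result columns while the protocol names 77 µM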
Target sequence (P06280 whole entry, looked up): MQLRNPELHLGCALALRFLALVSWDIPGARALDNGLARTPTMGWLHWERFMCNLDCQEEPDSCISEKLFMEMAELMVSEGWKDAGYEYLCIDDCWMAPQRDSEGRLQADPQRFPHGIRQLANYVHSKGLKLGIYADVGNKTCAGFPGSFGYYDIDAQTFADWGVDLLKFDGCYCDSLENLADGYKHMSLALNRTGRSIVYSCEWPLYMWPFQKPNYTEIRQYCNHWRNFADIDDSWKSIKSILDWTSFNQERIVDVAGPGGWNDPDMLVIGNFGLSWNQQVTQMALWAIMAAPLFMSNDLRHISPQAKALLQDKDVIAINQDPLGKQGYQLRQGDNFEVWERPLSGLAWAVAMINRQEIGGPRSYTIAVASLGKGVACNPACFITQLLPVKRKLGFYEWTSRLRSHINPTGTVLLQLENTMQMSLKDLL
* = called active by the depositor; ? = inconclusive; / = no result given; & = joins results of further samples; [ ] = dose if it differs, or a comment. These rows are one share of the data; the hit share may differ from the screen's.

| SMILES | miR-21 FLuc | Rango release inh | Rango-impB inh | GLA inh pH 4.5 |
| --- | --- | --- | --- | --- |
| CCCCCC(=O)N1CCN(S(=O)(=O)c2ccc3c(c2)OCCO3)CC1 | / | -1.7% | -2.1% | / |
| O=C(Nc1ccc2oc(-c3ccc4ccccc4c3)nc2c1)c1ccc2c(c1)OCCO2 | -17.2% | 5.5% | -0.8% | -4.4 |
| CCn1nnc(NC(=S)NC(=O)c2ccc(-c3cccc(Cl)c3)o2)n1 | -13.8% | -6.2% | -0.7% | 5.8 |
| CCOC(=O)c1ccc(NC(=O)c2ccc(OC(C)C)c(OC)c2)cc1 | -0.3% | -10.6% | -4.6% | -1.1 |
| COc1cc(CCC(=O)N2CC(C)OC(C)C2)cc(OC)c1OC (stereo not given) | -0.4% | -7.5% | 0.2% | / |
| CC1=C(C(=O)Nc2ccccc2)C(c2ccco2)NC(=O)N1 (stereo not given) | / | 4.9% | -6.3% | / |
| CCOc1ccc(OCC)c(-c2c(=O)n(OCc3ccc(C(C)(C)C)cc3)c3ccccc3[n+]2[O-])c1 | -1.1% | -6.3% | 3.1% | -5.0 |
| O=C(c1ccc2c(=O)n(Cc3ccc4c(c3)OCO4)c(=O)[nH]c2c1)N1CCN(c2ccccc2)CC1 | -0.9% | 2.8% | 0.7% | / |
| Cc1ccccc1CC1(CO)CCCN(C(=O)c2cccc(Cl)c2)C1 (stereo not given) | -6.4% | -1.3% | -0.5% | -5.1 |
| CCOC(=O)C1(CC/C(C)=N\NC(N)=O)CC(C)OC1=O (stereo not given) | -5.5% | -7.7% | 0.5% | -4.1 |
| CCN(C(=O)c1cccc(Br)c1)c1ccccc1 | -2.7% | 2.4% | 1.0% | 2.5 |
| CCc1ccc(O)c(N=Cc2cccc(C)c2O)c1 | -19.4% | 1.3% | 4.3% | -5.9 |
| COc1ccc(C2=NC(C)(C)Cc3cc(OC)c(OC)cc32)cc1OC | -32.4% | 0.1% | 4.0% | / |
| O=C(NCCc1ccc(C(F)(F)F)cc1)C1CCC(=O)N(CCCN2CCCC2=O)C1 (stereo not given) | -13.6% | 0.2% | -3.3% | / |
| c1ccc(OCCCc2nc(-c3ccccn3)no2)cc1 | -56.1% | -4.4% | 3.8% | -10.1 |

A second format for some results above:
miR-21 FLuc	Rango release inh	Rango-impB inh	GLA inh pH 4.5	smiles
/	-1.7%	-2.1%	/	CCCCCC(=O)N1CCN(S(=O)(=O)c2ccc3c(c2)OCCO3)CC1
-17.2%	5.5%	-0.8%	-4.4	O=C(Nc1ccc2oc(-c3ccc4ccccc4c3)nc2c1)c1ccc2c(c1)OCCO2
-13.8%	-6.2%	-0.7%	5.8	CCn1nnc(NC(=S)NC(=O)c2ccc(-c3cccc(Cl)c3)o2)n1
-0.3%	-10.6%	-4.6%	-1.1	CCOC(=O)c1ccc(NC(=O)c2ccc(OC(C)C)c(OC)c2)cc1
-0.4%	-7.5%	0.2%	/	COc1cc(CCC(=O)N2CC(C)OC(C)C2)cc(OC)c1OC (stereo not given)
/	4.9%	-6.3%	/	CC1=C(C(=O)Nc2ccccc2)C(c2ccco2)NC(=O)N1 (stereo not given)
-1.1%	-6.3%	3.1%	-5.0	CCOc1ccc(OCC)c(-c2c(=O)n(OCc3ccc(C(C)(C)C)cc3)c3ccccc3[n+]2[O-])c1
-0.9%	2.8%	0.7%	/	O=C(c1ccc2c(=O)n(Cc3ccc4c(c3)OCO4)c(=O)[nH]c2c1)N1CCN(c2ccccc2)CC1
-6.4%	-1.3%	-0.5%	-5.1	Cc1ccccc1CC1(CO)CCCN(C(=O)c2cccc(Cl)c2)C1 (stereo not given)
-5.5%	-7.7%	0.5%	-4.1	CCOC(=O)C1(CC/C(C)=N\NC(N)=O)CC(C)OC1=O (stereo not given)

Remaining list, next part
| SMILES | miR-21 FLuc | Rango release inh | Rango-impB inh | GLA inh pH 4.5 |
| --- | --- | --- | --- | --- |
| Cc1nnc(SCC(=O)N2c3ccccc3C(C)(c3ccccc3)CC2(C)C)s1 (stereo not given) | 3.7% | -7.0% | -2.6% | -14.4 |
| Cc1nn(CC#N)c(=O)n1-c1ccccc1F | -3.1% | 7.8% | -1.3% | -0.5 |
| COc1ccc(CCNC(=O)C(=O)NCC2OCCN2S(=O)(=O)c2ccc(Cl)cc2)cc1OC (stereo not given) | 23.1% | -10.9% | 1.8% | / |
| Cc1ccc(NC(=O)c2nc[nH]c2C(=O)NCc2ccccc2)cc1 | / | 3.3% | 0.4% | / |
| CC(C)Oc1ccc2c(=O)c(-c3ccccc3)coc2c1 | -44.7%&-66.7% | 1.3% | -1.0% | 0.4&0.1 |
| COc1ccc(CCNC(=O)/C=C/c2ccco2)cc1OC | -4.0% | 3.1% | ? | / |
| COc1cccc(NC(=O)Cn2c(CCC(=O)O)ccc2-c2cccs2)c1 | -1.0% | 10.9% | ? | -9.1[21.1 µM] |
| Cc1ccc(OCC(=O)N2CCC3(CC2)CC(=O)c2ccccc2O3)cc1 | / | -21.6% | ? | / |
| O=c1cc(-c2ccccc2)c2c(O)cc(O)cc2o1 | -1.0% | ? | ? | / |
| N#CC1=C(N)OC2=C(CCc3ccccc32)C1c1ccccc1Cl (stereo not given) | 6.1% | ? | ? | 11.6 |
| CN1c2ccccc2C(C)(C)C12CC(c1ccc(S(=O)(=O)N3CCCCC3)cc1)=NO2 (stereo not given) | 12.7% | -13.0% | -4.5% | -3.8 |
| COc1ccc(/C=N/NC(=S)SC)cc1OC | 0.2% | -4.8% | -0.8% | -21.0 |
| Cc1ccc(CNC(=O)C2C3C=CC(C3)C2C(=O)O)cc1 (stereo not given) | -1.3% | -1.2% | 1.4% | 1.1 |
| COc1cccc(C(=O)NCc2cn3ccsc3n2)c1 | -14.5% | -7.2% | -1.6% | 3.1 |
| O=C(COC(=O)c1cc(S(=O)(=O)N2CCOCC2)ccc1F)Nc1c(Cl)cccc1C(F)(F)F | / | 20.3% | 0.1% | / |
| O=C(CN(CCO)c1ccccc1)Nc1ccc(Cl)c(S(=O)(=O)N2CCOCC2)c1 | -0.4% | 0.9% | 1.4% | 1.4 |
| Cc1ccc(-c2cc(C(F)(F)F)n3nc(C(=O)Nc4c(C)n(C)n(-c5ccccc5)c4=O)cc3n2)cc1 | -4.9% | 11.3% | 6.5% | -1.6 |
| COc1ccc(-c2nc(CS(=O)CC(=O)N3CCN(C)CC3)c(C)o2)cc1OC (stereo not given) | -7.5% | -15.3% | 9.0% | / |
| CC(=O)Nc1nnc(COc2ccc(Cl)cc2)s1 | -61.6% | -3.7% | -0.8% | -5.2 |
| O=C(CSc1n[nH]c(=O)n1C1CC1)Nc1ccc(F)c(Cl)c1 | / | -6.7% | 1.3% | / |
| COc1ccc(-c2c3c(=O)n(C)c(=O)n(C)c3cn2-c2cccc(OC)c2)cc1 | -17.1% | 8.7% | 1.3% | -23.3 |
| CC(C)[C@H](NC(=O)N1CC(=O)Nc2ccccc21)C(=O)N[C@@H](C(=O)O)c1ccccc1 | 0.3% | -0.6% | 2.5% | / |
| COC(=O)c1ccc(NC(=O)CC(=O)Nc2ccc(C(=O)OC)cc2)cc1 | -0.2% | -1.8% | -0.5% | / |
| CCOC(=O)C1C(c2ccccc2Cl)NC(=O)N(C)C1(O)C(F)(F)F (stereo not given) | -6.2% | -9.0% | 0.4% | -7.2 |
| O=C(NCc1ccc2c(c1)OCO2)C1CCCN1C(=O)Nc1ccc(Cl)cc1 (stereo not given) | -2.1% | -2.7% | 1.2% | / |
| O=C(CSc1nc2ccccc2s1)Nc1ccc(Cl)c(C(=O)O)c1 | -6.2% | -11.4% | -0.3% | 2.5 |
| CCc1nc(CN2CCN(c3ccc(C(F)(F)F)cn3)CC2)c(C)[nH]1 | 13.1% | 24.9% | -0.5% | 1.9 |
| COc1ccc(S(=O)(=O)Nc2cccc(F)c2C)cc1C(=O)N1CCOCC1 | 0.6% | 5.5% | 0.9% | 1.0 |
| Cc1ccc(N(C(=O)c2ccco2)C(C(=O)NC2CCCC2)c2ccco2)c(C)c1 (stereo not given) | 10.0% | -4.1% | 0.5% | / |
| Cn1c(CCN2CCOCC2)nc2cc(NC(=O)COc3ccc([N+](=O)[O-])cc3)ccc21 | 6.3% | 11.3% | -7.5% | / |
| CN(CC(=O)Nc1ccccc1Br)C(=O)c1cccc(S(=O)(=O)NCc2ccccc2)c1 | / | 32.8% | -5.0% | / |
| O=C(Nc1ccc(F)cc1Cl)c1ccc2c(=O)n3c(nc2c1)CCC3 | / | -5.8% | -2.5% | / |
| Cc1cccc(C)c1NC(=O)COC(=O)c1ccc(N2CCCC2)c([N+](=O)[O-])c1 | -0.3% | 2.6% | 1.9% | 0.1 |
| CCN(CC)CCCNc1ncnc2scc(-c3ccc(F)cc3)c12 | -1.4% | 23.8% | -0.5% | / |
| C/C(Cn1nnc2ccccc21)=N\NC(=O)c1ccc(Br)cc1 | -14.2% | -12.9% | -0.4% | 10.8 |
| CC(C)C[C@H](NC(=O)c1[nH]cnc1C(=O)N[C@@H](C)c1ccccc1)C(=O)OCc1ccccc1 | ? | 3.0% | 3.7% | ? |
| C=CCOC(=O)C1=C(C)OC(N)=C(C#N)C1c1ccoc1 (stereo not given) | -3.2% | ? | ? | -9.3 |
| CC(C)[C@H](NC(=O)C1CCCC1)c1nc2ccccc2[nH]1 | -0.3% | 2.2% | 1.4% | -1.8 |
| CC1C(=O)N2CCCc3cc(NC(=O)C(=O)NCCc4ccccc4)cc1c32 (stereo not given) | / | 8.7% | -0.1% | / |
| COCc1cc(N2CCOCC2)nc(-c2ccccc2)n1 | 1.0% | 3.0% | -2.9% | -0.5 |
| O=C(N/N=C/c1ccco1)c1cc(-c2ccc(Cl)cc2)n[nH]1 | -7.3% | -5.2% | 0.8% | -3.0 |
| Cc1ccc(CCNC(=O)C2CCN(C(=O)N(C)C)CC2)cc1 | -1.6% | 11.3% | ? | 2.2 |
| CCN1CCN(CCCOc2ccccc2-c2ccccc2)CC1 | -13.0% | ? | 0.9% | -3.6 |
| CC(=O)N/C(=C/c1ccc(OS(=O)(=O)c2ccc(C)cc2)cc1)C(=O)Nc1ccc(C(=O)O)cc1 | -0.4% | -3.1% | 2.5% | ? |
| CC(=O)N1CCc2cc(C(=O)CN3CCC(C)CC3)ccc21 | -9.1% | -25.6% | -3.1% | 2.5 |
| COc1ccc(CN=CC2=C(O)CNC2=O)cc1OC | -4.2% | 0.4% | 0.1% | -2.3 |
| O=C(CSCc1ccc(F)cc1)NCc1ccc(F)cc1 | -15.3%&-11.0% | 6.1% | 4.4% | -11.3 |
| O=C(COc1ccc(Cl)cc1)N1CCN(c2cccc(C(F)(F)F)c2)CC1 | -1.7% | 6.8% | -0.4% | -15.3 |
| CCOC(=O)/C(C#N)=C\c1c(OCC)n(CC)c2ccccc12 | 8.4% | -3.2% | -3.3% | -6.8 |
| CC1=C(C(=O)OC(C)C)C(c2ccc(F)cc2)NC(=O)N1 (stereo not given) | -1.0% | -9.1% | 1.1% | 4.6 |
| CC(=O)c1ccc(S(=O)(=O)N2CCN(S(=O)(=O)c3ccccc3C(F)(F)F)CC2)cc1 | 0.6% | -8.3% | 3.3% | / |
| COC(=O)COc1ccc(S(=O)(=O)N2CCN(c3ccc(F)cc3)CC2)cc1 | 4.4% | 4.5% | -1.4% | 2.1 |
| COc1ccc2[nH]c3c(c2c1)CCN1C(=O)C(CC(=O)NCc2cccc(C(F)(F)F)c2)C[C@H](C(=O)N2CCCCC2)[C@@]31C (stereo not given in full) | / | ? | 1.2% | / |
| O=C(CSc1ncnc2nc[nH]c12)N1CCN(c2ccc(Cl)cc2)CC1 | 21.7% | -16.6% | 1.5% | 3.6 |
| CCCCC(=O)Nc1cccc(NC(=S)NC(=O)C(C)C)c1 | -2.6% | -5.3% | -1.2% | 5.0 |
| NNc1nc(-c2ccccc2Cl)nc2ccccc12 | -14.5% | -6.1% | 0.1% | / |
| CCOc1cc(CNC(=O)CCCn2c(=O)c3cccn3c3cccnc32)cc(OCC)c1OCC | -22.4%&-19.6% | 5.2% | -0.9% | / |

Screening data deposited in PubChem by National Center for Advancing Translational Sciences (NCATS).
